# Mtb betalactam = beta-lactam sensitization of Mtb H37Rv; hit rate 0.27% among 330,000; AID 434955; M. tuberculosis H37Rv growth with meropenem, percent inhibition; hits of this screen are not shown here; inhibition, % at 25 µM;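 active = about 74% or more and at least 40 points above the plate without the antibiotic, then above 30% in a dose series; inconclusive = first-round hits that could not be retested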;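 also: growth measured after seven days incubation then overnight dye step; 0% = bacteria only wells and 100% = bacteria with antibiotic; twin plates without the antibiotic show which effects depend on it; some results filed as inactive read as strong as hits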
# Active calls of the source: *; ? = inconclusive. The list is partial (hit frequency here may not be typical).
SMILES,Mtb betalactam
COc1ccc([C@H]2CC(=O)C=C(c3ccc(OC)c(F)c3)C2)cc1,43
Cc1onc(-c2ccccc2)c1C(=O)NCC(=O)Nc1cc(Cl)ccc1Cl,-4
CC1CCN(C(=O)c2[nH]cnc2C(=O)NCCCCCNC(=O)OC(C)(C)C)CC1,0
COc1ccc(S(=O)(=O)N2CCCCC2)cc1NC(=O)COC(=O)c1ccco1,0
CNC(=O)COC(=O)C1CCN(S(=O)(=O)c2ccc3c(c2)OCCO3)CC1,-7
Cc1cccc(C)c1NC(=O)CN1CCN(CC(=O)c2cc(C)n(C3CC3)c2C)CC1,-6
CCC1CCCCN1CCCNC(=O)CSc1nc2nc(C)c(Cc3ccccc3)c(C)n2n1 (stereo not drawn),-5
CCCn1nc(C(=O)NNC(=O)c2cccc(C)c2)c2ccccc2c1=O,81
O=C(CN1C(=O)NC2(CCCCC2)C1=O)NCCCSc1ccccc1,-10
Cc1cc(NC(=O)CSc2nnc(NCc3ccco3)s2)no1,-4
Cc1cc(C)n(-c2ccc(C(=O)OCC(=O)Nc3ccc(S(N)(=O)=O)cc3)cc2)n1,-6
COc1cc(S(=O)(=O)N2CCOCC2)cc(C(=O)OCC(=O)NCc2ccco2)c1OC,-2
COc1ccc(NS(=O)(=O)c2cc(NC(=O)COc3ccccc3)ccc2N2CCOCC2)cc1,3
COc1cc(OC)c(N(C)S(=O)(=O)c2cccc(C(=O)Nc3nccs3)c2)cc1Cl,-3
CC1CCCCN1C(=O)CSc1nc2c(c(=O)n(C)c(=O)n2C)n1C (stereo not drawn),2
Cc1cccc(C)c1NC(=O)CNC(=O)c1cccc(S(=O)(=O)NCc2cccs2)c1,3
CC(Oc1cccc(Cl)c1)C(=O)N1CCN(c2ncccn2)CC1 (stereo not drawn),-6
Brc1ccc(Oc2ccc(Br)cc2Br)c(Br)c1,8
CCOc1ccc(N(CC(=O)NC2CCCCC2)S(=O)(=O)c2ccccc2)cc1,-6
CC(C)(C)[C@H]1COC(=O)CC/C=C\C[C@H](CC(=O)N(CCO)Cc2ccccc2)C(=O)N1,-10
Cc1noc(C)c1NC(=O)N(C)C[C@H]1Oc2ccc(NC(=O)C3CC3)cc2C(=O)N([C@H](C)CO)C[C@@H]1C,4
COc1ccc(NC(=O)/C=C/c2ccc(S(=O)(=O)N3CCOCC3)cc2)cc1,2
Cc1ccc(S(=O)(=O)/N=C(/Nc2nc(C)cs2)c2ccccc2)cc1,9
Cc1ccc(C)c(C(=O)COC(=O)c2nn(C)c(=O)c3ccccc23)c1,-4
CC1CCN(C(=O)c2ccc3c(c2)OCO3)CC1,2
CC1CCCC(NC(=O)COC(=O)CCC(=O)c2ccc(F)cc2)C1C (stereo not drawn),-1
COc1cc(C(=O)Nc2scc(-c3ccccc3)c2C(=O)O)cc(OC)c1OC,10
Cn1c(N)c(C(=O)CSc2nnc(C3CC3)n2Cc2ccccc2)c(=O)n(C)c1=O,-4
O=C(Nc1ccc(Cl)cc1)c1nc[nH]c1C(=O)NCCN(CCNC(=O)c1[nH]cnc1C(=O)Nc1ccc(Cl)cc1)CCNC(=O)c1[nH]cnc1C(=O)Nc1ccc(Cl)cc1,39
COc1ccc(S(=O)(=O)N2CCOCC2)cc1NC(=O)CSc1ccc(F)cc1,1

# Sorted by length of the SMILES (largest number first): part of the list above.
SMILES,Mtb betalactam
O=C(Nc1ccc(Cl)cc1)c1nc[nH]c1C(=O)NCCN(CCNC(=O)c1[nH]cnc1C(=O)Nc1ccc(Cl)cc1)CCNC(=O)c1[nH]cnc1C(=O)Nc1ccc(Cl)cc1,39
Cc1noc(C)c1NC(=O)N(C)C[C@H]1Oc2ccc(NC(=O)C3CC3)cc2C(=O)N([C@H](C)CO)C[C@@H]1C,4
CC(C)(C)[C@H]1COC(=O)CC/C=C\C[C@H](CC(=O)N(CCO)Cc2ccccc2)C(=O)N1,-10
Cc1cc(C)n(-c2ccc(C(=O)OCC(=O)Nc3ccc(S(N)(=O)=O)cc3)cc2)n1,-6
COc1ccc(NS(=O)(=O)c2cc(NC(=O)COc3ccccc3)ccc2N2CCOCC2)cc1,3
COc1cc(S(=O)(=O)N2CCOCC2)cc(C(=O)OCC(=O)NCc2ccco2)c1OC,-2
Cc1cccc(C)c1NC(=O)CNC(=O)c1cccc(S(=O)(=O)NCc2cccs2)c1,3
CCC1CCCCN1CCCNC(=O)CSc1nc2nc(C)c(Cc3ccccc3)c(C)n2n1 (stereo not drawn),-5
COc1ccc(NC(=O)/C=C/c2ccc(S(=O)(=O)N3CCOCC3)cc2)cc1,2
CCOc1ccc(N(CC(=O)NC2CCCCC2)S(=O)(=O)c2ccccc2)cc1,-6
Cc1ccc(C)c(C(=O)COC(=O)c2nn(C)c(=O)c3ccccc23)c1,-4
Cc1ccc(S(=O)(=O)/N=C(/Nc2nc(C)cs2)c2ccccc2)cc1,9
CCCn1nc(C(=O)NNC(=O)c2cccc(C)c2)c2ccccc2c1=O,81
CC1CCCC(NC(=O)COC(=O)CCC(=O)c2ccc(F)cc2)C1C (stereo not drawn),-1
O=C(CN1C(=O)NC2(CCCCC2)C1=O)NCCCSc1ccccc1,-10
CC(Oc1cccc(Cl)c1)C(=O)N1CCN(c2ncccn2)CC1 (stereo not drawn),-6
Cc1cc(NC(=O)CSc2nnc(NCc3ccco3)s2)no1,-4
Brc1ccc(Oc2ccc(Br)cc2Br)c(Br)c1,8

# Another view of part of the listing above:
SMILES	Mtb betalactam
CC1CCN(C(=O)c2ccc3c(c2)OCO3)CC1	2
CCOc1ccc(N(CC(=O)NC2CCCCC2)S(=O)(=O)c2ccccc2)cc1	-6

# More structures.
SMILES,Mtb betalactam
C[C@]12C(=O)N(c3cccc(Cl)c3)C(=O)N1[C@@H]1c3ccccc3OC[C@@H]1[C@H]2c1ccccc1,-3
O=C(CN1CCSC1=O)N1CCN(S(=O)(=O)c2ccc(Cl)cc2)CC1,-2
O=C1NC(Cc2ccccc2)c2nc3cc(F)ccc3c(=O)n2-c2ccc(Cl)cc21 (stereo not drawn),26
COc1cc(C#Cc2ccc3cc(C(C)(C)O)oc(=O)c3c2)cc(OC)c1,1
COc1cc(C=NNc2ccc(S(=O)(=O)Nc3ccccc3C(=O)O)cc2[N+](=O)[O-])ccc1O,3
CCc1noc(C)c1C(=O)N(CC)CC(=O)Nc1cc(Cl)ccc1C,-10
CN(CC(=O)Nc1ccccc1C(F)(F)F)C(=O)c1ccccc1Sc1ccccc1C#N,-5
COc1ccc(S(=O)(=O)Nc2cccc3c2O[C@H](CN(C)Cc2ccc(Cl)c(Cl)c2)[C@@H](C)CN([C@H](C)CO)C3=O)cc1,2
CC#C[C@@H](CC)c1ccc2ccn(C)c2c1,-2
COc1ccccc1OCc1ccc(C(=O)Nc2ccccc2)cc1,-11
N#Cc1ccc(C23OCCN2CCn2c3c3ccccc3[n+]2[O-])cc1 (stereo not drawn),22
CC1(c2ccccc2Br)NC(=O)N(CC(=O)NC2CCCCC2)C1=O (stereo not drawn),3
O=C(Nc1ccc(OC(F)(F)F)cc1)c1ccccc1-n1cnnn1,64
COC(=O)C1=C(c2ccc(F)cc2F)C[C@@H]2CC[C@H]1N2C(=O)NCCO,6
COc1ccc(C(=O)OCC(=O)Nc2ccc(N3CCOCC3)cc2)cc1OC,1
O=C(CN(c1ccccc1F)S(=O)(=O)c1ccccc1)Nc1ccc2c(c1)OCCO2,?
CSc1nc(N)nc2c1ncn2CC(=O)N[C@H](C)c1cccc2ccccc12,-2
Cc1noc(C)c1COc1ccccc1C(=O)N(C)Cc1ccco1,-9
O=C(COC(=O)CCCOc1ccccc1)NNC(=O)c1ccc([N+](=O)[O-])cc1,1
CCc1ccc([C@@H]2CC=C(C(=O)O)[C@H](c3ccc(F)cc3)N2S(=O)(=O)c2ccc(C)cc2)cc1,0
Cc1ccsc1C(=O)N1CCN(c2ncccn2)CC1,0
COc1ccc([C@H]2CC(=O)C=C(/C=C/c3ccccc3)C2)cc1,-3
CC1Cc2ccccc2N1C(=O)c1ccc(F)c(S(=O)(=O)N2CCOCC2)c1 (stereo not drawn),-5
Cc1ccccc1C(=O)N1CCN(c2ccc(NC(=O)c3ccc([N+](=O)[O-])o3)cc2)CC1,100
CCCN(CC(=O)Nc1ccccc1C)C(=O)c1nn(CC)c(=O)c2ccccc12,-2
C#CCN[C@H](C)Cc1ccccc1,-3
COc1cc2c(C#Cc3cccnc3)c(-c3ccsc3)oc(=O)c2cc1OC,3
O=C(CNC(=O)c1ccc(N2CCCC2=O)cc1)Nc1ccc(F)c(F)c1F,-2
C[C@H](CO)N1C[C@H](C)[C@@H](CN(C)Cc2ccc3c(c2)OCO3)Oc2c(NS(=O)(=O)c3cn(C)cn3)cccc2C1=O,-1
CN1CC[C@]23c4ccccc4N[C@H]1[C@]21CCN(C)[C@H]3Nc2ccccc21,53
CCOC(=O)c1cccc(C2=CC(=O)CC(C)(C)C2)c1,5
COc1ccc(OC)c(CN2CCN(C(=O)CNC(=O)c3ccc(C(C)(C)C)cc3)CC2)c1,71
COc1ccccc1OCCC(=O)OCC(=O)NCc1ccc(F)cc1,-4
CCC(C)NC(=O)C1CCN(CCCc2ccccc2)CC1 (stereo not drawn),-2
Cc1ccc(S(=O)(=O)N2CCOCC2)cc1NC(=O)COC(=O)c1cncc(Br)c1,3
Cc1csc(SCC(=O)Nc2ccc(C)c(F)c2)n1,50
Cc1ccc(S(=O)(=O)N2CCN(c3nc(CN4CCCC4)nc4sc(C)c(C)c34)CC2)cc1,33
CCOc1ccc2nc(NC(=O)CSCC(=O)Nc3cc(C)on3)sc2c1,-1
CC(=O)Nc1ccc(S(=O)(=O)NCCC(=O)NCCOc2ccccc2)cc1,7
COc1cc(C(=O)NNC(=O)c2cccc(Cl)c2)ccc1OCC(=O)N1CCOCC1,10
CC[C@]12c3[nH]c4ccccc4c3CCN1C(=O)C(CC(=O)NC(C)(C)C)C[C@@H]2C(=O)N1CCN(C(=O)C2CC2)CC1 (stereo partly drawn),-7
CC(C)c1ccccc1OCCCCN1CCCCC1,3
COc1cccc(NC(=O)CN2C(=O)NC3(CCCCCC3)C2=O)c1,2
O=C(COC(=O)COc1ccccc1F)Nc1cccc(S(=O)(=O)N2CCCCC2)c1,1
COc1ccc(OCCCC(=O)Nc2ccc(OC)c(S(=O)(=O)N3CCOCC3)c2)cc1,-8
COc1ccc(NC(=O)Nc2cccc3c2O[C@H](CN(C)C(=O)Nc2ccc4c(c2)OCO4)[C@@H](C)CN([C@H](C)CO)C3=O)cc1,-12
COC(=O)C1=C(c2ccccc2OCc2ccccc2)C[C@@H]2CC[C@H]1N2C(=O)NCc1ccc(OC)cc1,1
Cc1cccc(C)c1NC(=O)CN(C)C(=O)CCC(=O)c1ccccc1,1
COc1ccc(N(C(=O)c2ccn[nH]2)C(C(=O)NC2CCCC2)c2ccc(F)cc2)cc1 (stereo not drawn),-4
COc1ccc(S(=O)(=O)N(C)C[C@H]2Oc3ccc(NS(=O)(=O)c4ccccc4)cc3C(=O)N([C@H](C)CO)C[C@@H]2C)cc1,2
CC(C)c1ccc(NC(=O)COC(=O)CC2CCCC2)cc1,1
CCC1NC(=O)c2cc(S(N)(=O)=O)c(Cl)cc2N1 (stereo not drawn),-1
O=C(CCc1nc(-c2ccccc2)no1)NCc1ccccc1CN1CCOCC1,1
CCN1C(=O)C(=Cc2c(C)n(CC(=O)NCC3CCCO3)c3ccccc23)C(=O)N(CC)C1=S (stereo not drawn),2
Cn1cc(C(=O)NCC(=O)Nc2ccccc2Br)cn1,1
Cc1ccc(NC(=O)C2COc3ccccc3O2)cc1S(=O)(=O)N1CCCCC1 (stereo not drawn),7
O=c1ccc2c(-c3ccccc3S(=O)(=O)O)c3ccc(O)c(O)c3oc-2c1O,25
Cn1c(CC(=O)NNC(=O)c2ccc(F)cc2F)nc2ccccc21,51
CC/C=C(\NC(C)=O)c1ccccc1,4
C[n+]1ccc(-c2cc[n+](C)cc2)cc1,-4

# Other compounds
SMILES,Mtb betalactam
O=C1C(=O)c2ccccc2C(O)=C1C1CCC(c2ccc(Cl)cc2)CC1 (stereo not drawn),57
COc1cccc2sc3cc(NCc4ccc5c(c4)OCO5)ccc3c(=O)c12,86
CC(C)CCN(C(=O)c1ccncc1)c1c(N)n(Cc2ccccc2)c(=O)[nH]c1=O,2
O=C(NC1CCN(Cc2ccc(Cl)cc2)CC1)c1cn(-c2ccccc2)nc1-c1cccnc1,8
COC(=O)C1=C(c2ccc(C(C)=O)cc2)C[C@@H]2CC[C@H]1N2C,1
CC(=O)NCc1ccc(C(=O)CSc2nnc(C3CC3)n2C2CC2)cc1,7
Cc1sc2nc(CN3CCOCC3)nc(NS(=O)(=O)c3cc(Cl)ccc3Cl)c2c1C,3
O=C(CN1C(=O)NC2(CCCc3ccccc32)C1=O)NCc1cccs1 (stereo not drawn),2
Oc1ccc(-c2nc(-c3ccc(F)cc3)c(-c3ccncc3)[nH]2)cc1,0
N#CN1CCC(NS(=O)(=O)c2ccc(C(F)(F)F)cc2)C1 (stereo not drawn),-4
CC(C)(C)OC(=O)C[C@H]1C/C=C\C[C@H](CC(=O)NCCO)C(=O)NC[C@@H](c2ccccc2)OC1=O,-5
Cc1cc(C)c(C)c(S(=O)(=O)N2CCN(C(=O)CNC(=O)c3ccco3)CC2)c1C,2
COc1ccccc1C(=O)NC(=O)COC(=O)Cc1ccccc1[N+](=O)[O-],-10
COc1ccc(Cl)cc1NC(=O)CN(C)C(=O)c1cccc2cccnc12,7
Cc1cccc(Nc2nnc(SCC(=O)NCC3CCCO3)s2)c1C (stereo not drawn),-5
c1ccc2c(c1)c1cccc3ccc4cccc2c4c31,4
Cc1cccc(C(=O)N[C@@H](C)C(=O)N2CCN(c3ncccn3)CC2)c1,-4
C#CCOCCOCCOCCNc1nc(N2CCN(C(=O)CCCCCCCCCCNC(=O)[C@H](CCCCN)n3cc(CCO)nn3)CC2)nc(N2CCN(C(=O)CCCCCCCCCCNC(=O)[C@H](CCCCN)n3cc(CCO)nn3)CC2)n1,10
CC1CCN(C(=O)COC(=O)c2cccc(S(=O)(=O)N(C)c3ccccc3)c2)CC1,-1
CCN(CC(=O)Nc1ccc(Br)cc1F)CC(=O)NC1CCS(=O)(=O)C1 (stereo not drawn),0
C=CCC[C@H](Cc1ccc(F)cc1)C(=O)OC[C@@H](C)NC(=O)[C@H](CC=C)CC(=O)N(CCO)Cc1ccccc1,-1
